Bioassay records from PubChem.
VACV Venus inh: inhibitors of vaccinia virus (Venus reporter) | Vaccinia virus Venus reporter expression, fluorescence | Potency, µM (top dose mostly 36.5 µM), for inactives: at the highest dose activity change, negative = inhibition, usual class: inhibitors | actives 0.46% (n = 330,000); active means well fitted inhibition curve with a large enough effect; inconclusive means small, poorly fitted or top-dose-only effect; inactive means no such curve, though single readings can be large or run the other way; tested in A549 cells; note: nearly all actives have a fitted effect of over 30% in size; inactives centre near -10
VACV mCherry inh: vaccinia inhibition (mCherry reporter). Potency, µM (top dose mostly 36.5 µM), for the others: top-dose activity change, negative = inhibition, hits mostly inhibitors. Vaccinia virus mCherry reporter infection, fluorescence; about a quarter of the inactives have no number. actives 0.63% (n = 310,000). AID 720579; active = well fitted inhibition curve with a large enough effect; inconclusive = small, poorly fitted or top-dose-only effect; inactive = no such curve, though single readings can be large or run the other way; tested in A549 cells; note: nearly all actives have a fitted effect of over 35% in size; inactives centre near -10
* = called active by the depositor; i = inactive; ? = inconclusive; / = no result given; & = joins results of further samples; [ ] = another dose, or the depositor's remark. % is set by controls: 0 for no effect and ±100 for the full control effect; potency is the fitted concentration of half-maximal effect. Rows are unselected; 0.82% or so of the library scored in one or more.

| canonical_smiles | VACV Venus inh | VACV mCherry inh |
| --- | --- | --- |
| Cn1c(C(=O)NCc2cccc(Cl)c2)cc2oc3ccccc3c21 | 24.7% | -21.0% |
| Cc1ccc(S(=O)(=O)N2CCN(C(=O)CNC(=O)c3ccc(Cl)cc3)CC2)cc1 | -18.7% | -24.8% |
| COc1ccccc1NC(=S)NC(=O)C(C)(C)C | -2.5% | -8.1% |
| C[C@@]12C(=O)Nc3ccccc3C(=O)N1[C@H]1c3cc(Br)ccc3OC[C@@H]1[C@@H]2c1ccccc1 | ? | -13.5% |
| Cc1ccc(C2=Nc3cccnc3C(c3ccccc3)=NN2)cc1 | -18.7% | -2.5% |
| Cc1ccc(CN(C(=O)COc2ccc(Cl)c(C)c2)C2CCS(=O)(=O)C2)o1 (configuration not stated) | -5.2% | -5.8% |
| CCOc1ccc(-n2c(SCc3nc(-c4ccc(OC)cc4)no3)nnc2-c2ccncc2)cc1 | -8.5% | -12.2% |
| CC1(Cc2ccc3c(c2)OCO3)C(=O)Nc2ccc(-c3cccc(C(F)(F)F)c3)cc21 (configuration not stated) | ? | -16.4% |
| CCOc1ccc(S(=O)(=O)NCCCl)cc1 | ? | -29.8% |
| [C-]#[N+][C@H](O[C@@H]1O[C@H](CO)[C@@H](O)[C@H](O)[C@H]1O)c1ccccc1 | -2.3% | -5.5% |
| CC(=O)N1CCc2c(sc(NC(=O)CSc3ccc(F)cc3)c2-c2nc3ccccc3s2)C1 | -1.2%[7.34 µM] | -4.5%[7.34 µM] |
| CCc1ccccc1OCC(=O)Nc1nnc(C2CC2)s1 | -5.6% | -22.2% |
| CCN(C(=O)CSc1nnc(C)n1Cc1ccccc1)C1CCS(=O)(=O)C1 (configuration not stated) | -6.8% | -3.8% |
| CCOC(=O)[C@@H]1[C@H]2COc3cc(OC)ccc3[C@H]2N2C(=O)N(c3ccc(F)cc3)C(=O)[C@]12C | -9.2% | ? |
| Cc1nc(SCC(=O)Nc2nnc(C(C)C)s2)n[nH]1 | -7.6% | -3.4% |
| CNC(C)C(=O)NC(C(=O)NC(C(=O)Nc1cccc2ccccc12)C(C)C)C(C)C (configuration not stated) | -2.2% | 1.9% |
| O=C1/C(=C/c2ccc([N+](=O)[O-])cc2)Oc2cc(O)ccc21 | -9.0% | -18.5% |
| CCc1nc2c(OCCC3CCCCC3)cccn2c1N(C)C(=O)c1cccs1 | -23.1% | -2.9% |
| COCC(=O)Nc1cc(C(=O)N2CCCC2c2nccs2)c2c(c1)nc(-c1ccncc1)n2C (configuration not stated) | -4.5% | -12.0% |
| O=C(Nc1ccccc1F)C1CCCN(S(=O)(=O)c2cccc3cccnc23)C1 (configuration not stated) | -20.9% | -21.8% |
| COc1ccc(C(=O)Oc2cc(C(=S)N3CCOCC3)ccc2OC)cc1 | -17.3% | -22.1% |
| C=CCn1cccc(C(=O)Nc2ccc(OC)cc2OC)c1=O | 9.2% | -5.5% |
| CC1CCc2c(sc3c2C2=NS(=O)(=O)CCN2C=N3)C1 (configuration not stated) | -19.9% | / |
| CC(=O)Nc1ccc(S(=O)(=O)NCc2nc(-c3ccccc3C)no2)cc1 | 22.1% | 0.9% |
| C=C(C)C(=O)Nc1cccc(C2=NOC3(C2)C[C@@H](C(N)=O)N(C(=O)c2ccc(OC)cc2)C3)c1 (some centres not stated) | -17.0% | i |
| Cc1nnsc1C(=O)Nc1cccc(Cl)c1 | 7.3% | -15.0% |
| CCOC(=O)OC(C)OC(=O)[C@@H]1N2C(=O)[C@@H](NC(=O)[C@H](N)c3ccccc3)[C@H]2SC1(C)C (some centres not stated) | -4.4% | i |
| COc1ccc(OC)c(C2CC(=O)N3CN(c4ccccc4F)CSC3=C2C#N)c1 (configuration not stated) | -15.8% | -1.6% |
| Cc1cccc(CCNc2ncnc3onc(-c4ccc(Cl)cc4)c23)c1 | -10.9% | -16.7% |
| CC#CCC(CC#CC)c1nc2ccccc2c(=O)n1N | -5.6% | -9.9% |
| Cc1ccc(-c2cn(-c3ccccc3)c(=S)[nH]2)cc1C | 3.3% | ? |
| Nc1ccccc1C(=O)OC1CSC1 | -3.0% | i |
| Cc1ccc(NC(=O)c2cc(S(=O)(=O)N3CCc4ccccc43)cn2C)c(Cl)c1 | -10.8% | -18.3% |
| CCOC(=O)c1oc2ccccc2c1CN1CCN(C(=O)c2ccccc2)CC1 | -10.2% | -13.3% |
| O=C(CSc1nc2ncccc2[nH]1)Nc1ccc2c(c1)OCO2 | -8.2% | i |
| CC(Oc1cc(F)ccc1[N+](=O)[O-])C(=O)N(C)CC(=O)Nc1ccccc1C(F)(F)F (configuration not stated) | -7.7% | -13.3% |
| O=C(NCC1CCCO1)C(c1ccco1)N(Cc1ccc(F)cc1)C(=O)CN1C(=O)c2ccccc2S1(=O)=O (configuration not stated) | -8.2% | -14.9% |
| COc1cc(C(=O)N2CCCC(c3cc(C(=O)NCc4ccccc4)no3)C2)cc(OC)c1C (configuration not stated) | -11.4% | -21.7% |
| O=C(COc1ccc2ccc(=O)oc2c1)Nc1cc([N+](=O)[O-])ccc1F | -7.9% | -15.3% |
| COC(=O)c1ccc2nc(-c3ccc(C)cc3)c(CC3CCCCC3)n2c1 | -0.9% | 10.3% |
| CC(=O)c1c(C)[nH]c(C(=O)CSc2nnc(CN3CCCCCC3=O)n2-c2ccccn2)c1C | -5.8% | -12.4% |
| S=c1[nH]nc(-c2ccc3ccccc3n2)n1-c1ccc(Cl)cc1 | -11.7% | -17.7% |
| COCCN1CCN(C(=O)c2ccc3nc(Cc4ccccc4F)oc3c2)CC1 | -17.3% | -13.1% |
| COC(=O)c1ccc2nc(-c3ccccc3)c(Cc3ccccc3C(F)(F)F)n2c1 | -3.0% | -6.7% |
| CC(C)(C)C(=O)COC(=O)c1cc(S(=O)(=O)N2CCCCC2)ccc1N1CCOCC1 | -7.7% | -7.2% |
| Cc1cc(C)nc(SCC(=O)c2cc3ccccc3oc2=O)n1 | -5.4% | / |
| COc1ccc(OC)c(S(=O)(=O)NCC(c2cccs2)S(=O)(=O)c2ccc(F)cc2)c1 (configuration not stated) | -7.7% | -14.7% |
| CC(C)[C@H]1C(=O)Nc2ccccc2N1C(=O)N[C@@H](Cc1ccccc1)C(=O)N[C@@H](Cc1ccccc1)C(=O)O | 8.3% | 3.1% |
| Cc1cc(S(=O)(=O)N2CCOCC2)ccc1F | ? | -4.4% |
| COC(=O)c1cc2oc3ccccc3c2n1Cc1nc(-c2cccc(C)c2)oc1C | 2.6% | -8.4% |
| CC(C)COC(=O)N1CCCC1C(=O)O (configuration not stated) | 0.1% | ? |
| FC(F)(F)c1nc(N2CCCC2)ncc1-c1nnnn1-c1ccc(Cl)cc1 | ? | ? |
| O=C(O)C1CC=C(Cl)CC1C(=O)NCC1OCCc2ccccc21 (configuration not stated) | -5.3% | / |
| CC(=O)/C(=N/Nc1ccc([N+](=O)[O-])cc1)N1CCCc2ccccc21 | -5.7% | -19.8% |
| CN1C(=O)CC(=O)N(C)c2cc(S(=O)(=O)N(C)Cc3ccccc3)ccc21 | -9.0%&-12.9% | -16.0%&-9.8% |
| Cc1ccccc1NC(=O)COC(=O)COc1ccc2ccc(=O)oc2c1 | -2.0% | -13.9% |

Going on with the list.
| canonical_smiles | VACV Venus inh | VACV mCherry inh |
| --- | --- | --- |
| Cc1ccc(N2C(=O)[C@@H]3C(C(=O)C(c4ccccc4)c4ccccc4)=NN[C@@H]3C2=O)cc1 | -6.8% | i |
| CC(c1nccs1)N(C)c1nc2nonc2nc1N(C)C (configuration not stated) | -7.8% | -10.4% |
| Clc1cccc2c1Sc1ccccc1CC2N1CCNCC1 (configuration not stated) | ? | ? |
| Cc1ccc(S(=O)(=O)Nc2nc3n(n2)C(c2ccc(F)cc2)C=C(c2ccccc2)N3)cc1 (configuration not stated) | -8.3% | -4.3% |
| Cc1nnnn1/C(=C\c1ccccc1)C(=O)OCC(=O)Nc1ccc(Cl)cc1F | ? | -22.7% |
| COc1cccc(C(=O)c2cc3cc(Cl)ccc3[nH]2)c1 | ? | -15.1% |
| C[C@H](O)[C@@H]1C(=O)N2CCc3ccc(-c4ccccc4)cc3[C@@H]2C[C@@H]1N(C)C(=S)Nc1ccc(F)cc1 | -29.9% | -7.7% |
| O=C(CN1CCN(Cc2ccc(Cl)cc2)CC1)N/N=C/c1c[nH]c2ccccc12 | -26.7% | -17.9% |
| CCN1C(=O)[C@H]2[C@@H](c3ccc(C(F)(F)F)cc3)N[C@]3(CCCN(Cc4ccc(Br)cc4)C3=O)[C@H]2C1=O | ? | -26.8% |
| COc1ccc2ncc(S(=O)(=O)c3ccccc3)c(N3CCC4(CC3)OCCO4)c2c1 | -18.7% | ? |
| CC1CC(CC(C)C(=O)NC(=S)Nc2ccc(S(N)(=O)=O)cc2)C(=O)O1 (configuration not stated) | -6.6% | i |
| CC(NC(=O)Cn1nc(C(=O)O)c2ccccc2c1=O)c1ccccc1 (configuration not stated) | -14.5% | i |
| Cc1c(Cl)c([N+](=O)[O-])nn1CC(=O)NCC1CCCO1 (configuration not stated) | -8.0% | -12.7% |
| CNC(=S)N(C)CCc1cc2c(c(OC)c1C=C1C(=O)NC(=O)NC1=O)OCO2 | -5.1% | -3.6% |
| Nc1c2c(nc3ccc(Br)cc13)N(c1ccccc1)CC2 | -10.1% | -1.4% |
| Cc1ccc(NC(=S)N2CCC(c3ccccc3)C2)c(Cl)c1 (configuration not stated) | -9.4% | -15.2% |
| CC(C)C1C(=O)N(Cc2cn(CCC3OCCCO3)nn2)CCS(=O)(=O)N1Cc1ccc(-c2ccc(Cl)c(Cl)c2)cc1 (configuration not stated) | ? | -15.2% |
| COc1ccc(-c2c(C)c3ccc(O)c(CN4CCCCC4)c3oc2=O)cc1OC | -17.7% | -10.0% |
| CC1(C)Cc2ccccc2C(=O)N1 | -1.0% | i |
| COc1ccc(-c2c(C#N)c(N)nc(Sc3ccc(Cl)cc3)c2C#N)cc1 | -11.5% | i |
| CN(CCCC1CCCC1)C(=O)CC1C(=O)NCCN1Cc1cccc(F)c1F (configuration not stated) | -15.3% | -21.4% |
| CN(CCCCCC(=O)/C=N/O)Cc1ccccc1 | -13.5% | -16.9% |
| O=C(Cc1n[nH]c(=O)c2ccccc12)N1CCN(S(=O)(=O)c2ccc(F)c(Cl)c2)CC1 | -9.3% | i |
| CCOc1ccccc1NC(=O)Cn1c2ncccc2c(=O)n1-c1ccc(C)c(C)c1 | -8.4%[7.34 µM] | 3.1%[7.34 µM] |

Of the compounds above, these contain a tert-butyl group:
| canonical_smiles | VACV Venus inh | VACV mCherry inh |
| --- | --- | --- |
| COc1ccccc1NC(=S)NC(=O)C(C)(C)C | -2.5% | -8.1% |
| CC(C)(C)C(=O)COC(=O)c1cc(S(=O)(=O)N2CCCCC2)ccc1N1CCOCC1 | -7.7% | -7.2% |

Additional results.
| canonical_smiles | VACV Venus inh | VACV mCherry inh |
| --- | --- | --- |
| CN(C)S(=O)(=O)c1ccc(SCC(=O)N2CC(=O)Nc3ccccc32)nc1 | -7.9% | -19.9% |
| COc1ccc(/C=C2\SC(c3ccc(C)cc3)=NC2=O)cc1OC | -8.5% | -13.3% |
| Cc1ccc(S(=O)(=O)NC(=O)C2(C)CCN2C(=O)CC2CCCCC2)nc1 (configuration not stated) | -8.5% | 16.8% |
| COc1cccc(-c2c(-c3cc(OC)cc(OC)c3)n(C)c3ccc(Br)cc23)c1 | -9.6% | i |
| CCOc1ccc(NC(=O)CSc2nccn2C)cc1 | -2.6% | -14.9% |
| CC(=O)C1=C(O)C(=O)N(Cc2ccco2)C1c1ccccc1F (configuration not stated) | -1.8% | i |
| COC(=O)C1=C(C(=O)OC)[C@@H]2N(C)c3ccc(OC)cc3[C@@]23C[C@@H](C(=O)OC)N(C(=O)c2ccc(Br)cc2)C3=N1 | 11.2µM* | ? |
| CC(=O)Nc1ccc(NC(=O)CN(C)S(=O)(=O)c2ccc3c(c2)CCCC(=O)N3)cc1 | 8.5% | -3.8% |
| CCCC[C@@H]1C=C(C(=O)O)[C@H](c2ccc(Cl)c(Cl)c2)N1S(=O)(=O)c1ccc(C)cc1 | -20.8% | -3.2% |
| CN1C(=O)C(C)(C)c2cc(S(=O)(=O)N3CCCC(C(=O)NCc4ccccc4Cl)C3)ccc21 (configuration not stated) | -22.1% | ? |
| CCC(CC)NC(=O)CN1CCN(S(=O)(=O)c2ccc(Br)s2)CC1 | -13.6% | -16.8% |
| COc1ccccc1-n1c(SCc2cc(=O)oc3cc(O)ccc23)nc2ccccc2c1=O | -18.9% | -0.7% |
| CSc1ccc(CCNC(=O)Cn2nc(C)n3c(cc4sccc43)c2=O)cc1 | -4.6% | -0.4% |
| CCOC(=O)N1CCN(C(=O)CCNS(=O)(=O)c2ccccc2)CC1 | -10.7% | i |
| CCCc1ccc(S(=O)(=O)NCC2CCCN2CC)cc1 (configuration not stated) | -15.5% | i |
| COc1ccc(NCC(O)Cn2c(C)c(C)c3ccccc32)cc1 (configuration not stated) | -19.2% | -22.4% |
| O=c1[nH]c(=O)n(-c2ccccc2)c2c1C(C(F)(F)F)(C(F)(F)F)N=C(C1CCCCC1)N2 | -4.0% | -12.4% |
| CC1CC(C)(C)NC(=S)N1CCCC(=O)Nc1ccc(F)cc1 (configuration not stated) | -1.6% | -2.3% |
| Cc1ccc(C(=O)CSc2nc(N)cc(=O)[nH]2)cc1C | -10.7% | i |
| O=C(COC(=O)c1cccs1)Nc1ccccc1Cl | -8.9% | -12.7% |
| Cc1ccc(S(=O)(=O)c2nnn3c2nc(NCc2ccc(F)cc2)c2sccc23)cc1 | ? | ? |
| O=C(NNC(=O)C(c1ccccc1)c1ccccc1)c1ccccn1 | ? | ? |
| CCOC(=O)COc1ccc(/C=C2/SC(=Nc3ccccc3)N(Cc3cccnc3)C2=O)cc1OC | -5.0% | / |
| Cc1cc(C)cc(NC(=S)N2CCC(c3nc4ccccc4s3)CC2)c1 | -8.1% | -10.2% |
